# High-throughput results from PubChem BioAssay.
# Menin-MLL FL inh: qHTS Assay for Inhibitors Targeting the Menin-MLL Interaction in MLL Related Leukemias: Competition With Fluorescein Labeled MLL-derived Peptide; FP activity change, % at 61.4 µM; 290,000 tested, under 10 active; Fluorescence polarization, fluorescein-MLL peptide displacement from menin; inconclusive = falling polarisation curve, or a change in total fluorescence; inactive = total fluorescence flat and polarisation flat or rising; no compound was filed as active; the % refers to the polarisation; negative = inhibition;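 further: % of control where 0% means no effect; inhibitors lower the polarisation; unlabelled MLL peptide was the positive control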
# Sfp inh: qHTS Assay for Inhibitors of Bacillus subtilis Sfp phosphopantetheinyl transferase (PPTase). 4'-phosphopantetheinyl transferase ffp (Bacillus subtilis), Q9F4F7. Biochemical Sfp PPTase activity, qHTS. Potency, µM, inactives show max response, negative = inhibition, actives largely listed as inhibitors. 310,000 compounds, 3.5% hits. AID 1490, 2009; active means well fitted inhibition curve with a large enough effect; inconclusive means small, poorly fitted or top-dose-only effect, or another doubt; inactive means no such curve, though single readings can be large or run the other way;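 further: the enzyme is Sfp with the accession as filed and its product quenches rhodamine fluorescence; potency means the concentration at half of the fitted maximal effect; 0% = enzyme reaction without inhibitor and -100% = no enzyme wells; top concentration of the series not given in the record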
#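 Step 1, compound plus 15 nM Sfp-PPTase, 15 min, room temperature. Step 2, add rhodamine-CoA (5 uM) and BHQ-2-YbbR (12.5 uM). Step 3, read 525/598 nm fluorescence at 0 and 30 min.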
# * = called active by the depositor; ? = inconclusive; & = joins results of further samples; [ ] = remark or other dose. The list is partial; rates above refer to the full screens.
# Start of the listing, in advance, 4 compounds:
# Each structure is followed by: Menin-MLL FL inh | Sfp inh
> CC(C)C[C@@H](CC(=O)N[C@@H](CCC(=O)O)CC(=O)O)NC(=O)[C@@H]1CNCC[C@H]1NC(=O)C[C@H](CCCN)NC(=O)C[C@H](CO)NC(=O)[C@@H]1CNCC[C@H]1N
→ -2.3 | -18%
> Cc1noc(C)c1-c1cc(NCc2cccnc2)ncn1
→ 0.4 | -21%
> CN(CCc1ccc(Cl)c(Cl)c1)CCN1CCCC1
→ -19 | ?
> O=c1cc(-c2cccc(O)c2)oc2cccc(O)c12
→ -20 | 12%

# The list itself, previewed entries included:
# Each structure is followed by: Menin-MLL FL inh | Sfp inh
> CC(C)C[C@@H](CC(=O)N[C@@H](CCC(=O)O)CC(=O)O)NC(=O)[C@@H]1CNCC[C@H]1NC(=O)C[C@H](CCCN)NC(=O)C[C@H](CO)NC(=O)[C@@H]1CNCC[C@H]1N
→ -2.3 | -18%
> Cc1noc(C)c1-c1cc(NCc2cccnc2)ncn1
→ 0.4 | -21%
> CN(CCc1ccc(Cl)c(Cl)c1)CCN1CCCC1
→ -19 | ?
> O=c1cc(-c2cccc(O)c2)oc2cccc(O)c12
→ -20 | 12%
> O=C(Nc1ccccc1)N1CCCC2(CCN(C(=O)c3cnccn3)CC2)C1
→ -1.3 | 6%
> CN1CCN(c2ncc3nc(-c4cccc(C#N)c4)c(=O)n(Cc4ccc(F)cc4)c3n2)CC1
→ -5.3 | 2%
> CC(=O)OC[C@@H]1O[C@@H](O/N=C2/C[C@@H](O)[C@@H](O)[C@@H]3[C@@H]4C(=O)N(C(C)(C)C)C(=O)[C@H]4CC[C@H]23)[C@H](OC(C)=O)[C@H](OC(C)=O)[C@@H]1OC(C)=O
→ 1.7[11.7 µM] | 19%
> CC(=O)OC1CC[C@@]2(C)C3CC[C@@]4(C)C(CC5O[C@@]6(CCC(C)CO6)C(C)C54)C3CC[C@@H]2C1 (stereo partly drawn)
→ -0.3 | 11%
> c1cncc(CNc2nc(-c3ccc4c(c3)OCO4)nc3ccccc23)c1
→ 5.0 | -13%
> CCCC/C=C/C(NC(=O)c1ccc(C(F)(F)F)cc1)c1ccccc1 (stereo not drawn)
→ 5.2 | 25%
> COc1cccc([C@@H]2Oc3ccc(Br)cc3C(=O)[C@H]2OC(=O)NCCOc2ccccc2)c1
→ -0.4 | 20%
> COc1cccc([C@@H]2Oc3ccc(Br)cc3C(=O)[C@H]2OC(=O)NS(=O)(=O)c2ccc(C)cc2)c1
→ ? | 9%
> CCCNC(=O)OC[C@@H]1O[C@H](c2ccccc2)C=C[C@@H]1Oc1ccc(OC)cc1
→ 4.7[11.7 µM] | 2%
> O=C1C2=C(S[C@@H]3O[C@H](CO)[C@@H](O)[C@H](O)[C@H]3O2)C(=O)c2ccccc21
→ ? | ?
> CCN1C(=O)[C@H]2[C@H]3[C@H](O)[C@H](O)C/C(=N/OCC[C@H]4C=C[C@H](OC(C)=O)[C@@H](COC(C)=O)O4)[C@@H]3CC[C@@H]2C1=O
→ -1.7[11.7 µM] | -1%
> CNC(=O)[C@H](Cc1c[nH]c2ccccc12)NC(=O)[C@@H](CC(=O)NO)CC(C)C
→ 1.4 | 10%&-7%
> N#Cc1cccc(-c2cc(NCc3ccccc3)ncn2)c1
→ 2.4 | 24%
> COc1cccc([C@@H]2Oc3ccc(OC)cc3C(=O)[C@H]2OC(=O)Nc2ccc(OC(F)F)cc2)c1
→ 0.3 | -7%
> C/C(CCC(=O)OC[C@@H]1O[C@H](C#Cc2ccccc2)C=C[C@@H]1Oc1ccc(C)cc1)=N/O[C@@H](C)c1cc(-c2c(C)cc(C)cc2C)no1
→ 0.8[11.7 µM] | -7%
> COc1ccccc1-c1ccc2ncnc(Nc3ccccc3)c2c1
→ 2.4 | -6%
> COc1ccccc1-c1ccc2ncnc(N3CCN(C)CC3)c2c1
→ -4.5 | -22%
> COC(C)C(C(=O)OCC1=CCN2CC[C@H](O)[C@@H]12)C(C)C (stereo partly drawn)
→ -6.7 | -2%
> COc1ccccc1CN1CCCC2(CCN(C(=O)c3csnn3)CC2)C1
→ 8.5 | 7%
> COC(=O)[C@@]1(Cc2ccc(OC)cc2)[C@H]2c3cc(C(=O)N4CCCC4)n(CCN4CNCC4=O)c3C[C@H]2CN1C(=O)c1ccccc1
→ 3.3 | 9%
> CCCNC(=O)N1N=C(c2ccc(N)cc2)c2cc3c(cc2C1C)OCO3 (stereo not drawn)
→ 3.0 | -15%
> COc1ccc(CNc2cc(-c3ccccc3C)ncn2)c(OC)c1
→ 5.6 | -28%
> CC(C)C[C@@H](CC(=O)N[C@@H](CCCN)CC(=O)N[C@@H]1CCNC[C@H]1C(=O)N[C@H](CC(=O)N[C@@H](CCC(=O)O)CC(=O)O)Cc1c[nH]c2ccccc12)NC(=O)[C@@H]1CNCC[C@H]1N
→ -0.2 | -5%
> CCCn1c(C)nc2c(N(CCOC)CCOC)nc(C)nc21
→ 0.0 | 21%
> COC(=O)C1(C(C)=O)CC2=CC[C@H]3C(=O)N(c4ccccc4)C(=O)[C@H]3[C@@H]2Cc2ccccc2[C@@H]1C[N+](=O)[O-] (stereo partly drawn)
→ 5.3&0.3 | -17%&3%
> C=CCOC(=O)C(=C)C
→ -1.2 | 8%
> CC1(C)OC(=O)NC1=O
→ -0.8 | -4%&-3%
> CC/C=C\C/C=C\C/C=C\C/C=C\C/C=C\C/C=C\CCC(=O)NC(C)C(=O)O (stereo not drawn)
→ 2.4 | -29%
> CN(C)C(=O)c1ccc(-c2cc(N(C)Cc3ccco3)ncn2)cc1
→ -7.8 | -5%
> N[C@@H](Cc1cnc[nH]1)C(=O)O
→ -1.0 | ?
> COc1cccc(-c2nccc(NCc3cccc(C)c3)n2)c1
→ -2.0 | -13%
> CCCCC1=CC2=C(c3ccco3)C(=O)C(C)(OC(=O)c3ccc(OC)cc3)C(=O)C2=CN1C1CCCC1 (stereo not drawn)
→ -7.7[11.7 µM] | 8%
> CCN(CC)CCn1c(-c2ccccc2)nc2c(NCc3ccccc3)nc(C)nc21
→ -8.1 | 11%
> CCNc1ncc2nc(-c3cn(C)c4ccccc34)c(=O)n(-c3ccc(OC)cc3)c2n1
→ ? | 25%
> C=CC[C@@H]1C=C[C@@H](O/N=C(/C)CCC(=O)OC[C@@H]2O[C@H](c3ccccc3)C=C[C@@H]2Oc2ccc(OC)cc2)[C@@H](CO)O1
→ -6.1[11.7 µM] | 4%
> CC1(C)OC2CC3C4CCC5=CC(=O)C=C[C@@]5(C)[C@]4(F)C(O)C[C@@]3(C)[C@]2(C(=O)CO)O1 (stereo partly drawn)
→ -1.6 | 2%

# 2 records picked at random from the list so far:
# Each structure is followed by: Menin-MLL FL inh | Sfp inh
> CC(=O)OC[C@@H]1O[C@@H](O/N=C2/C[C@@H](O)[C@@H](O)[C@@H]3[C@@H]4C(=O)N(C(C)(C)C)C(=O)[C@H]4CC[C@H]23)[C@H](OC(C)=O)[C@H](OC(C)=O)[C@@H]1OC(C)=O
→ 1.7[11.7 µM] | 19%
> COc1cccc([C@@H]2Oc3ccc(Br)cc3C(=O)[C@H]2OC(=O)NS(=O)(=O)c2ccc(C)cc2)c1
→ ? | 9%

# Further structures.
# Each structure is followed by: Menin-MLL FL inh | Sfp inh
> Cc1ccc(C2CC(=O)Oc3cc4c(cc32)OCO4)cc1 (stereo not drawn)
→ 1.6[94.6 µM] | -2%
> C=C(C)C(=O)OCCOCC
→ 1.0 | -9%
> COc1cccc(CC(=O)N2CCc3nc(COc4ccccc4)c4c(c3C2)CO[C@@H](C)C4)c1
→ -4.0[11.7 µM] | -1%
> c1ccc(C(c2ccccc2)N2CC3(CCNCC3)C2)cc1
→ -0.1 | -18%
> C=CCN1C=C2C(=O)C(C)(OC(=O)c3ccco3)C(=O)C(C=C)=C2C=C1C1CC1 (stereo not drawn)
→ -8.0[11.7 µM] | -1%
> CC(C)C[C@H](NC(=O)N1CCCCCC1)C(=O)N[C@H](Cc1cn(C)c2ccccc12)C(=O)N[C@H](Cc1ccccn1)C(=O)O
→ -1.2&-0.6 | 12%&-13%
> CCN[C@@H]1C[C@H](C)S(=O)(=O)c2sc(S(N)(=O)=O)cc21
→ 4.7[24.8 µM] | 24%
> O=c1c(-c2ccc(Cl)cc2)nc2cnc(N3CCNCC3)nc2n1Cc1cccs1
→ -2.9 | 28µM*
> CC(=O)OC1CC[C@]2(C)C(CC(OC(C)=O)[C@]3(C)C2CC[C@@]2(C)C(c4ccoc4)OC(=O)C4O[C@]432)C1(C)C (stereo partly drawn)
→ 0.3 | 11%
> CNc1nc(-c2ccc(N(C)C)cc2)nc2ccccc12
→ -4.9 | -26%
> CC1(C)O[C@H]2O[C@@H]([C@H](O)CON3C(=O)c4ccccc4C3=O)[C@H](O)[C@H]2O1
→ -2.5[11.7 µM] | 21%
> O=C(Nc1cc(NC(=O)c2ccccc2)c(C(=O)O)cc1C(=O)O)c1ccccc1
→ -1.2&-4.4 | 15%&19%
> COc1ccc(CNc2ncncc2-c2cccc(C#N)c2)c(OC)c1
→ -3.8 | -12%
> CC(C)=CCC[C@](C)(O)C1CC[C@]2(C)[C@@H]1CC[C@@H]1[C@@]3(C)CCC(=O)C(C)(C)[C@@H]3CC[C@]12C (stereo partly drawn)
→ -2.1 | 1%
> COc1cccc(Nc2ncc3nc(-c4ccc(F)cc4)c(=O)n(C)c3n2)c1
→ -7.2 | ?
> CC(=O)CC(=O)[C@@]1(O)CC[C@@H]2[C@@H]3C=C(C)C4=CC(=O)CC[C@@H]4[C@H]3CC[C@]21C
→ 0.3[24.8 µM] | 10%
> COc1c2c(cc3c1C(CC(O)C(C)C)N(C)CC3)OCO2 (stereo not drawn)
→ -2.3 | 3%
> CCCCc1nc2c(c3c1C[C@H](C)OC3)CN(C(=O)N[C@@H](C)c1ccccc1)CC2
→ -7.8[11.7 µM] | -12%
> COc1cc(OC)c2c(c1)OC1Cc3cc(OC)c(OC)cc3C2O1 (stereo not drawn)
→ 4.3[11.7 µM] | -17%
> Cc1cc(O)cc(=O)o1
→ -3.0 | 3%
> O=c1cnc2cnc(Nc3ccccc3)nc2n1CCc1ccccc1
→ 15 | 6%
> O=C(N/N=C\c1ccccc1O)c1ccccc1O
→ ? | -3%
> CN(C)CCC1(c2ccc(Cl)cc2)Cc2ccccc2C(=O)O1 (stereo not drawn)
→ 0.9&0.4 | -3%&10%
> C[C@H](N)C(=O)N[C@@H](CO)C(=O)N[C@H](C(=O)N[C@H](C(=O)N[C@H](C(=O)N[C@@H](CC(N)=O)C(=O)N[C@@H](Cc1ccc(O)cc1)C(=O)N[C@H](C(=O)O)[C@@H](C)O)[C@@H](C)O)[C@@H](C)O)[C@@H](C)O
→ 1.9 | 13%
> CCOc1ccc(/C=C/C(=O)c2cccs2)cc1
→ ? | ?
> C#CCCCO/N=C1/C[C@@H](O)[C@@H](O)[C@@H]2[C@@H]3C(=O)N(C4CCCCC4)C(=O)[C@H]3CC[C@H]12
→ 0.7[11.7 µM] | 19%
> CCCn1c(C)nc2c(N3CCN(C)CC3)nc(C)nc21
→ -6.2 | 21%
> N#Cc1ccccc1-c1ccc2ncnc(NC3CC3)c2c1
→ 3.1 | 16%
> CN[C@@H](CCCN=C(N)N)C(=O)N[C@@H](CCCCN)C(=O)N1CCC[C@H]1C(=O)N[C@@H](Cc1c[nH]c2ccccc12)C(=O)N[C@H](C(=O)N[C@H](CC(C)C)C(=O)O)C(C)(C)C
→ -9.2 | 1%
> O=c1c(CCc2ccccc2)nc2cnc(Oc3ccccc3)nc2n1C1CC1
→ 6.8 | -12%
> C[C@@H]1[C@H](O)[C@@H](C)/C=C/C=C/C=C/C=C/C=C/C=C/C=C/[C@H](O[C@@H]2O[C@H](C)[C@@H](O)[C@H](N)[C@@H]2O)C[C@@H]2O[C@](O)(C[C@@H](O)C[C@@H](O)[C@H](O)CC[C@@H](O)C[C@@H](O)CC(=O)O[C@H]1C)C[C@H](O)[C@H]2C(=O)O
→ 6.0 | ?
> O=[N+]([O-])c1ccc2c(c1)S(=O)(=O)C=C2
→ 3.0 | ?
> COC(=O)N1CCC2(CCCN(Cc3ccc(C#N)cc3)C2)CC1
→ 13 | 18%
> CC(C)C[C@H](NC(=O)[C@H](CO)NC(=O)[C@H](C)NC(=O)[C@H](CCCN=C(N)N)NC(=O)[C@H](CCCN=C(N)N)NC(=O)[C@@H](N)CC(C)C)C(=O)NCC(=O)O
→ 0.3 | 15%
> COc1ccc(-c2nc3cnc(N(C)C)nc3n(CCC#N)c2=O)cc1
→ ? | 17%
> Cc1ccc(CCN2C(=O)c3ccc(C(=O)O)cc3C2=O)cc1
→ 0.7 | 3%
> Cc1ccccc1OC1C=CC(c2ccccc2)OC1CO (stereo not drawn)
→ -2.5[11.7 µM] | -7%
> Cc1cnc(CNc2cc(-c3ccccc3C(F)(F)F)ncn2)cn1
→ 0.5 | -13%
> O=C(NC[C@@H](O)CO)c1c(I)c(C(=O)NC[C@@H](O)CO)c(I)c(N(CCO)C(=O)CO)c1I
→ 0.7[24.8 µM] | 13%
> CS(=O)(=O)N1CCC[C@@]2(CCN(Cc3nccs3)C2)C1
→ 5.9 | 9%
> Cc1cnc(CNc2ncnc3ccc(-c4ccccc4C#N)cc23)cn1
→ -0.9 | 5%
> COC(=O)N1C(c2ccccc2)=Cc2ccccc2C1C1(C(=O)OC)CCCC1=O (stereo not drawn)
→ 0.1 | -2%&9%
> O=C(c1ccncc1)N1CCC2(CC1)CCN(c1ccc(-c3ccccc3)cc1)CC2
→ 0.5 | 13%
